From PubChem
GIRK2 act = activators of human GIRK2 potassium channels; hit rate 0.05% among 63,000; HEK293-GIRK2 thallium flux, Thallos fluorescence; calls only for hits at 25 µM;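 active = among the strongest 0.2% of first-round signals and kept after retests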;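 also: first round at about 10 µM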
Target sequence (P48051 whole entry, looked up): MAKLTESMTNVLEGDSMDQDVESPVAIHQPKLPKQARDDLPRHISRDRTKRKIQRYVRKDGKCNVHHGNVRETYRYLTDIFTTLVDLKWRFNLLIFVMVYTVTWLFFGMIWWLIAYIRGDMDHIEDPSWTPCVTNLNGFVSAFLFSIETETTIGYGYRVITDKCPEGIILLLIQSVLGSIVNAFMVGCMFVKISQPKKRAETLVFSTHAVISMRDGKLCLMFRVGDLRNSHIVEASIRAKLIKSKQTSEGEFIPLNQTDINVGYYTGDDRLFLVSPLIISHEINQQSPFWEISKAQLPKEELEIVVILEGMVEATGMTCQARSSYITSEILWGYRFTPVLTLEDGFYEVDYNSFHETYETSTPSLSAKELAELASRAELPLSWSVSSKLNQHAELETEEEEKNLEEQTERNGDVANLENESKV
Calls only; i = inactive.

molecule	GIRK2 act
Cc1c(Cl)cccc1S(=O)(=O)NCCC(O)C1CC1 (configuration not stated)	i
CCOc1ccc(C(=O)Nc2ccc3c(c2)CCCN3S(=O)(=O)c2ccccc2)cc1	i
O=C(Nc1nc(C(=O)N2CCN(c3ccc(F)cc3)CC2)co1)c1ccsc1	i
COc1ccc2oc(=O)c(C(=O)N3CCN(c4ccc(C)c(Cl)c4)CC3)cc2c1	i
COc1cc(/C=C2\SC(=S)N(c3cccc(C(C)=O)c3)C2=O)cc(OC)c1OC	i
COc1ccc2c(c1)c(CC(=O)Nc1cc(C)c(C(=O)Nc3ccccc3)cc1OC)c(C)n2C(=O)c1ccc(Cl)cc1	i
O=C(CSc1oc(-c2ccc(Cl)cc2)nc1S(=O)(=O)c1ccccc1)N1CCCCC1	i
COC(=O)c1c(NC(=O)c2ccc(S(=O)(=O)N(C)C3CC3)cc2)sc2c1CCC2	i
Cc1c(Cl)cccc1NC(=O)C1CCCN(c2ccc(-n3cccn3)nn2)C1 (configuration not stated)	i
Cn1nc(-c2ccccc2)cc1C(=O)N1CCc2nc(NC(=O)C3CCCO3)sc2C1 (configuration not stated)	i
COC(=O)c1cn(Cc2cc(C)ccc2C)nc1S(=O)(=O)N(C)c1ccc(C)cc1	i
CN(CCO)CC1COCCN1C(=O)CCC1CCCC1 (configuration not stated)	i
Cc1cc(C)c2c(n1)sc1c(N3CCC(C(=O)NC(C)c4ccccc4)CC3)ncnc12 (configuration not stated)	i
CC(C)=CCC/C(C)=C/CC/C(C)=C/CSc1ccccc1C(N)=O	i
COc1cc2c(cc1OC)CN(C(=O)c1coc(NC(=O)c3ccccc3)n1)CC2	i
Cc1ccc(S(=O)(=O)N2CCCCC2CCNS(=O)(=O)c2cccnc2)cc1 (configuration not stated)	i
Cc1cc2oc(=O)cc(CN3CCC4(CC3)OCCO4)c2cc1O	i
CCc1cnc2c(c1NCc1ccco1)c(=O)n(C)c(=O)n2C	i
O=C(Cc1ccc(Cl)cc1)Nc1cnc(N2CCN(c3ccccc3)CC2)nc1	i
C=CCNC(=O)c1ccc(Nc2nn3c(=O)c4ccccc4nc3s2)cc1	i
O=C(Nc1ccc(-n2nnc(C(=O)NCC(F)(F)F)n2)cc1)c1ccsc1	i
COc1cc(NC(=O)CCc2nc3sc4c(c3c(=O)[nH]2)CCCCC4)cc(OC)c1	i
COc1ccc(Cl)cc1NS(=O)(=O)c1cc2c3c(c1)CCC(=O)N3CCC2	i
O=C(Nc1ccccc1F)N1CCC(Oc2ccc(C(F)(F)F)cn2)CC1	i
Cc1cc2nc(NC(=O)C3CCN(S(=O)(=O)c4ccc(F)cc4)CC3)sc2cc1C	i
Cc1cc(-c2nnc(NC(=O)Cc3c(F)cccc3Cl)o2)c(C)o1	i
CCOC(=O)Cn1c(=O)c2c(nc(-n3nc(C)c(C)c3C)n2CC)n(C)c1=O	i
CC(=O)Nc1cccc(C(=O)CC2(O)C(=O)Nc3ccccc32)c1 (configuration not stated)	i
COc1ccc(OC)c(NC(=O)COc2cc(C)nc(N3CCC(C)CC3)n2)c1	i
O=C(Cn1cccc(S(=O)(=O)N2CCCC2)c1=O)Nc1ccc(Br)cc1	i
CN1CCCc2cc(CCNC(=O)C(=O)NCCc3ccccc3)ccc21	i
CCOC(=O)N1CCc2c(sc(NC(=O)c3cccc(Cl)c3)c2-c2nc3ccccc3s2)C1	i
Cc1oc2c3c(ccc2c(=O)c1-c1ccc(Cl)cc1)OCN(C1CCS(=O)(=O)C1)C3 (configuration not stated)	i
COc1ccc(CC(=O)Nc2cc(-c3cccs3)nn2-c2nc(C)cc(=O)[nH]2)cc1OC	i
CCOc1ccc(/C=C/C(=O)Nc2ccc3c(c2)OCO3)cc1OC	i
CC(=O)Nc1ccc(NC(=O)C(=O)NCC2CCN(C(C)C)CC2)cc1	i

At a glance, 3 of the compounds above.
molecule	GIRK2 act
Cc1oc2c3c(ccc2c(=O)c1-c1ccc(Cl)cc1)OCN(C1CCS(=O)(=O)C1)C3 (configuration not stated)	i
COc1ccc(CC(=O)Nc2cc(-c3cccs3)nn2-c2nc(C)cc(=O)[nH]2)cc1OC	i
CCOc1ccc(/C=C/C(=O)Nc2ccc3c(c2)OCO3)cc1OC	i

Continuation:
molecule	GIRK2 act
COCCn1c(=O)c2c(nc(-n3nc(C)c(C)c3C)n2Cc2cccc(C)c2)n(C)c1=O	i
C=CCN1C(=O)C(O)(CC(C)=O)c2ccccc21 (configuration not stated)	i
CN1CCN(c2nc(N3CCOCC3)c3cnn(C)c3n2)CC1	i
CCN1C(=O)C(CC(=O)Nc2ccc(F)cc2)SC1=NS(=O)(=O)c1ccccc1 (configuration not stated)	i
CC(O)(CCc1ccccc1)CNC(=O)C(=O)Nc1ccc(F)cc1F (configuration not stated)	i
COc1cc(/C=C/C(=O)O)cc(S(=O)(=O)N2CCC(C(=O)O)CC2)c1OC	i
COc1ccc(CC(=O)Nc2ccc(Cn3cnc(C(=O)Nc4ccccc4OC)c3)cc2)cc1	i
CCOCCCNS(=O)(=O)CCNC(=O)c1ccc2c(c1)OCO2	i
Cc1c(C)n2c3c(=O)n(CC(C)C)c(=O)n(C)c3nc2n1CCO	i
O=C(CCS(=O)(=O)c1ccc(Cl)cc1)Nc1ccc2ncsc2c1	i
O=C(CNC(=O)c1ccc(=O)[nH]c1)Nc1ccc(-n2cnnn2)cc1	i
Cc1nc(-c2ccccc2)sc1CNS(=O)(=O)c1cccnc1	i
O=C(Nc1sccc1-c1nc2ccccc2s1)c1cc(Cl)sc1Cl	i
CCCn1nc(-c2ccco2)c2sc(N3CCCCC3)nc2c1=O	i
COCCn1c(N2CCN(Cc3cc(C)ccc3C)CC2)nc2c1c(=O)[nH]c(=O)n2C	i
Cc1ccnc(Nc2cc(N3CCN(C(=O)c4cccc(Cl)c4)CC3)nc(C)n2)c1	i
O=C(c1ccco1)N1CCN(C(=O)C2CC2c2ccc3c(c2)OCO3)CC1 (configuration not stated)	i
O=C(CCCn1c(=O)c2ccccc2n(CC(=O)c2ccc(F)cc2)c1=O)NCc1ccco1	i
O=C(C1CCC1)N1CCC(Oc2nc3ccc(F)cc3s2)CC1	i
CCN1CCN(c2nc3c(c(=O)[nH]c(=O)n3C)n2CC(C)O)CC1 (configuration not stated)	i
COC(=O)c1ccccc1NC(=O)Cn1cccc(S(=O)(=O)N2CCC(C)CC2)c1=O	i
COC(=O)c1c(NCc2ccccc2OC)c2cccc(Cl)c2[nH]c1=O	i
CCOc1ccc(NC(=O)N2CCc3c(c(=O)c4cc(C)cc(C)c4n3C)C2)cc1	i
Cc1cc(C)cc(-n2ccn3c(-c4ccc([N+](=O)[O-])cc4)nnc3c2=O)c1	i
COc1ccc(CNC(=O)Nc2nnc(-c3ccsc3)o2)cc1OC	i
Cc1ccc(S(=O)(=O)CCC(=O)Nc2nnc(-c3cc(C)oc3C)o2)cc1	i
CCCCC(=O)Nc1oc2c(C)cccc2c(=O)c1-c1cc(OC)c(OC)c(OC)c1	i
Cc1cc(NC(=O)C(=O)NCC2(c3cccs3)CCCC2)no1	i
O=c1cnn([C@@H]2O[C@H](CO)[C@@H](O)[C@H]2O)c(=O)[nH]1	i
COCCCNC(=O)c1c(N)n(/N=C\c2c[nH]c3ccccc23)c2nc3ccccc3nc12	i
CC(=O)Cn1c(=O)c2c(nc3n2CCCN3c2cccc(C)c2C)n(C)c1=O	i
COc1ccc(CNC(=O)Cn2c(=O)c(CNc3ccccc3)cc3ccc(OC)cc32)cc1	i
CCCN(C)c1nccn2c(=O)n(CC(=O)Nc3cccc(Cl)c3F)nc12	i
COc1ccc(NC(=O)Cn2cccc(-c3nc(-c4ccc(Cl)cc4)no3)c2=O)c(OC)c1	i
CCc1nc2sc(C(c3ccc(Cl)c(Cl)c3)N3CCCC3)c(O)n2n1 (configuration not stated)	i
O=C(N1CCC(CSCc2ccco2)CC1)C1(c2cccs2)CCCC1	i
Cc1noc(C2CN(Cc3ccoc3)C2)n1	i
CCc1nc(-c2ccc(N3CCN(C(=O)/C=C/c4cccs4)CC3)nc2)no1	i
C=CCn1c(SCC(=O)c2ccc3c(c2)OCO3)nc2sc(C)c(C)c2c1=O	i
CCC(Sc1ncc(S(=O)(=O)c2ccc(C)cc2)c(=O)[nH]1)C(=O)Nc1ccc(C)cc1 (configuration not stated)	i
Cc1c(C(=O)N2CCN(Cc3ccccc3)CC2)cccc1[N+](=O)[O-]	i
COC(=O)c1ccc2c(=O)n(Cc3ccc(C(=O)NCc4ccc(C)o4)cc3)c(=S)[nH]c2c1	i
CCc1ccccc1-n1c(-c2ccccc2)cn2c3c(=O)n(CC(C)=O)c(=O)n(C)c3nc12	i
O=C(/C=C/c1cccs1)NCC1CCN(c2ccccn2)CC1	i
Cc1cccc(NC(=O)Nc2ccc3c(c2)N(S(=O)(=O)c2cccs2)CCC3)c1	i
COc1ccccc1-n1nncc1CN1CCN(Cc2cccc(Cl)c2)CC1	i
C=CCn1c(=O)c2c(nc3n(C(C)CC)c(C)c(C)n23)n(C)c1=O (configuration not stated)	i
Cc1ccc(-c2cc(C(=O)N3CCC(NC(=O)c4ccc(N(C)C)cc4)CC3)[nH]n2)c(C)c1	i

Going on with the list.
SMILES	GIRK2 act
CCc1nnc(C2CCN(C(=O)Cc3ccc(OC)cc3)CC2)s1	i
O=C(Cc1nnc(-c2ccc3ncccc3c2)o1)NCc1ccc(F)c(Cl)c1	i
O=C(NCc1ccccc1)C1CCN(Cc2nc3ccccc3[nH]2)CC1	i
O=C(Nc1ccccc1)Nc1nc(CCC(=O)N2CCCC2)cs1	i
Cc1ccc(NC(=O)Cn2c(C)cc(C)c(S(=O)(=O)c3ccc(C)c(C)c3)c2=O)c(Cl)c1	i
COc1ccccc1C(=O)Nc1nc(-c2ccccc2)ns1	i
COc1ccccc1CNC(=O)CCCc1nnc2c(=O)n(-c3ccc(Cl)cc3)ccn12	i
Cc1c(C)n2c3c(=O)n(Cc4ccccc4F)c(=O)n(C)c3nc2n1C(C)C	i
Cc1ccc2cc(CCNC(=O)c3ccc(S(=O)(=O)N(C)C)cc3)c(=O)[nH]c2c1C	i
COc1ccc(S(=O)(=O)N(C)c2ccsc2C(=O)NCc2ccc(C(F)(F)F)cc2)cc1	i
COc1ccc(Br)c(C(=O)N2CC(c3nc(Cc4ccccc4)no3)C2)c1	i
Cc1ccccc1-c1nc(NC(=O)CSc2ncnc3sc4c(c23)CCC4)ns1	i
C=C(C)Cn1c(=O)c2c(nc3n2CC(C)=NN3C/C=C/C)n(C)c1=O	i
CCOC(=O)CSc1nnc(C)c2cnn(-c3ccccc3)c12	i
O=C(Nc1nc2c(s1)CN(C(=O)c1ccsc1)CC2)C1CC1	i
COCCN(Cc1ccoc1)C(=O)c1nc2ccccc2s1	i
O=C(Cc1ccc(-c2ccccc2)cc1)NCCC(O)c1ccccc1 (configuration not stated)	i
Cc1noc(CNC(=O)c2nc3ccccc3s2)n1	i
CCN(CC)S(=O)(=O)c1ccc(-c2nc(C#N)c(NCc3ccc(OC)cc3)o2)cc1	i
Cc1ccc(N2CN(CC(=O)N(C)C3CCCCC3)S(=O)(=O)c3cccnc32)cc1	i
Cc1cc(N2CCN(C(=O)COc3cccc4ccccc34)CC2)ncn1	i
COc1cccc(-c2ccc(=O)n(CCCC(=O)NC3CCCC3)n2)c1	i
COc1c(C)cc(S(=O)(=O)NCC(c2ccsc2)N2CCc3ccccc3C2)cc1C (configuration not stated)	i
COc1ccc(Cl)cc1NC(=O)Cn1c(C)ncc(C(=O)NC2CCCC2)c1=O	i
CC(C)NC(=O)CCCCn1c(=O)c2ccccc2n(CC(=O)Nc2ccc(C(C)C)cc2)c1=O	i
O=C(NCCn1ncc2c(N3CCCC3)ncnc21)C1CC1	i
Cc1ccc(-c2cnc(SCC(N)=O)n2-c2ccc(OC(F)F)cc2)cc1	i
CCOc1ccc(-c2nc(CN3N=NC4C(=O)N(c5cc(C)cc(C)c5)C(=O)C43)c(C)o2)cc1 (configuration not stated)	i
CCN(c1ccsc1C(=O)NCc1ccc(F)cc1F)S(=O)(=O)c1ccccc1	i
NC(=O)C1CCN(C(=O)c2csc3nc(-c4ccc(F)cc4)cn23)CC1	i

In a second layout: 2 of the compounds above
COCCn1c(N2CCN(Cc3cc(C)ccc3C)CC2)nc2c1c(=O)[nH]c(=O)n2C
  GIRK2 act = i
Cc1ccnc(Nc2cc(N3CCN(C(=O)c4cccc(Cl)c4)CC3)nc(C)n2)c1
  GIRK2 act = i

3 entries picked at random from the list so far, as already listed:
SMILES	GIRK2 act
O=C(Cc1nnc(-c2ccc3ncccc3c2)o1)NCc1ccc(F)c(Cl)c1	i
CCc1ccccc1-n1c(-c2ccccc2)cn2c3c(=O)n(CC(C)=O)c(=O)n(C)c3nc12	i
CC(C)NC(=O)CCCCn1c(=O)c2ccccc2n(CC(=O)Nc2ccc(C(C)C)cc2)c1=O	i

Other records follow:
SMILES	GIRK2 act
CC(C)(Oc1ccc(Cl)cc1)C(=O)NCC1(O)CCOc2ccccc21 (configuration not stated)	i
COc1cccc(Oc2nccn3c(=O)n(CC(=O)Nc4ccc5c(c4)OCCO5)nc23)c1	i
O=C(c1cc(=O)c(OCc2ccccc2)co1)N1CCN(c2ccc(Cl)cc2)CC1	i
COc1ccc2nc(OC3CCN(S(C)(=O)=O)CC3)sc2c1	i
COC(=O)c1cccc(Nc2c(C(=O)N3CCCCCC3)cnc3nc(C)ccc23)c1	i
O=C(Nc1nc(CN2CCc3ccccc3C2)cs1)c1ccco1	i
O=C(/C=C/c1ccco1)NCc1cc(-c2ccncc2)n(C2CCCC2)n1	i
COc1ccc(C(=O)NCCS(=O)(=O)NCc2cccs2)cc1	i
COc1ccc(CCS(=O)(=O)NCC(c2ccccc2Cl)N(C)C)cc1 (configuration not stated)	i
CCOc1ccccc1NC(=O)c1ccc(-c2ccccc2C(F)(F)F)o1	i
Cc1cccc(-n2nc(-c3nc(-c4ccc5c(c4)OCO5)no3)c3ccccc3c2=O)c1	i
Cc1ccc(-n2nnc(-c3nc(C)c(C(=O)NCC(C)C)s3)c2C)cc1C	i
CCNC(=O)N1CCN(c2nc3ccccc3n2C)CC1	i

This is a subset; count on the stated rates, not on these rows.
